High-throughput results (PubChem BioAssay)
Vaccinia inh = Vaccinia orthopox stage-specific inhibition. Vaccinia-infected cells, mCherry/Venus stage reporter fluorescence; stronger effect = lower value; some inactives read as strong as hits. activity change (mCherry), % (concentration not given with the values). 89,000 compounds, 0.01% hits. AID 1053133;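 active = mCherry past -33% and 40 or more points under the early reporter, replicates agreeing; inconclusive = past -33% without that gap or agreement; tested in A549 cells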;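 note: scaled between vehicle wells and reference inhibitor wells; 23 nL library stock went into each well; one replicate is shown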
Vaccinia inh Venus = recorded beside Vaccinia inh, whose call it bears; activity change (Venus), %; measured here: Venus reporter, other viral stage;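 negative = less Venus signal; first of two replicates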
* = called active by the depositor; ? = inconclusive; / = no result given; & = joins results of further samples.

Sequence of screens: Vaccinia inh	Vaccinia inh Venus
- C[C@@H]1CN([C@H](C)CO)C(=O)c2cccc(NC(=O)Nc3ccccc3)c2O[C@H]1CN(C)S(=O)(=O)c1ccc(Cl)cc1
    5.9	7.7
- COc1cccc(-c2ccc3c(c2)O[C@@H](CN(C)C(C)=O)[C@@H](C)CN([C@@H](C)CO)S3(=O)=O)c1
    4.1	-1.8
- Cc1ccc(S(=O)(=O)N[C@@H]2CC[C@@H](CC(=O)NCc3ccc(Cl)c(Cl)c3)O[C@H]2CO)cc1
    -24.2	-12.6
- O=C(Nc1ccccc1F)N1CC(=O)N2[C@H](CO)[C@@H](c3ccc(C#CC4CCCC4)cc3)[C@@H]2C1
    ?	/
- O=C(NCC[C@@H]1CC[C@H](NS(=O)(=O)c2cccc(F)c2)[C@@H](CO)O1)c1cnccn1
    5.2	6.7
- O=C(O)[C@@H]1[C@@H](CO)[C@@H]2Cn3c(ccc(-c4cncnc4)c3=O)[C@H]1N2C(=O)NC1CCCC1
    7.7	-0.1
- COCC(=O)N1CC2(CN(C(=O)c3cccnc3)C2)c2c([nH]c3cc(OC)ccc23)[C@H]1CO
    2.7	-0.4
- CC(C)NC(=O)N(C)C[C@H]1Oc2ccc(NC(=O)Nc3ccc(C(F)(F)F)cc3)cc2CC(=O)N([C@H](C)CO)C[C@@H]1C
    -6.2	4.4
- COc1ccc2c3c([nH]c2c1)[C@@H](CO)N(C(=O)c1cnccn1)CC31CN(S(C)(=O)=O)C1
    17.4	8.7
- CCCNC(=O)NC[C@H]1[C@@H](c2ccc(C3=CCCCC3)cc2)[C@H](CO)N1C(C)=O
    -15.0	-16.8

Going on with the list:
Sequence of screens: Vaccinia inh	Vaccinia inh Venus
- O=C(C[C@H]1CC[C@@H]2[C@H](COC[C@H](O)CN2Cc2ccc(Cl)cc2)O1)NCc1cccc(F)c1
    -29.5	-26.0
- C[C@@H]1CN([C@H](C)CO)S(=O)(=O)c2ccc(/C=C/c3ccccc3)cc2O[C@H]1CN(C)Cc1ccccc1
    ?	/
- C[C@@H]1CCCCO[C@@H](CN(C)Cc2ccc3c(c2)OCO3)[C@@H](C)CN([C@H](C)CO)C(=O)c2cc(NC(=O)Nc3ccc4c(c3)OCO4)ccc2O1
    -13.3	-17.8
- CC(C)NC(=O)Nc1cccc2c1O[C@@H](CN(C)S(=O)(=O)c1ccccc1)[C@H](C)CN([C@H](C)CO)C2=O
    18.0	11.5
- C[C@H](CO)N1C[C@H](C)[C@@H](CN(C)C(=O)Nc2cccc(C(F)(F)F)c2)OCc2ccccc2-c2ccccc2C1=O
    ?	/
- C[C@@H]1CN([C@H](C)CO)C(=O)CCCn2cc(nn2)CO[C@H]1CN(C)S(=O)(=O)c1ccc2ccccc2c1
    -4.9&2.2	-9.6&-4.0
- CCNC(=O)C[C@H]1CC[C@@H]2[C@H](COc3ccc(NC(=O)Nc4cccc(C)c4)cc3C(=O)N2C)O1
    3.9	4.3
- C[C@@H]1CN([C@H](C)CO)C(=O)Cc2cc(NS(=O)(=O)c3ccc(F)cc3)ccc2O[C@@H]1CN(C)C(=O)Nc1ccc(C(F)(F)F)cc1
    4.8	-3.6
- CO[C@H]1CN(C)C(=O)c2ccc(NC(=O)c3cccc(F)c3)cc2OC[C@H](C)N(C(C)=O)C[C@H]1C
    12.4	-0.9
- Cc1ccc(S(=O)(=O)Nc2ccc3c(c2)CC(=O)N([C@@H](C)CO)C[C@H](C)[C@H](CN(C)Cc2ccc(-c4ccccc4)cc2)O3)cc1
    -11.8	-10.9

Laid out differently: results already given.
compound | Vaccinia inh | Vaccinia inh Venus
C[C@@H]1CN([C@H](C)CO)C(=O)CCCn2cc(nn2)CO[C@H]1CN(C)S(=O)(=O)c1ccc2ccccc2c1 | -4.9&2.2 | -9.6&-4.0
CCNC(=O)C[C@H]1CC[C@@H]2[C@H](COc3ccc(NC(=O)Nc4cccc(C)c4)cc3C(=O)N2C)O1 | 3.9 | 4.3
C[C@@H]1CN([C@H](C)CO)C(=O)Cc2cc(NS(=O)(=O)c3ccc(F)cc3)ccc2O[C@@H]1CN(C)C(=O)Nc1ccc(C(F)(F)F)cc1 | 4.8 | -3.6

Next part:
Sequence of screens: Vaccinia inh	Vaccinia inh Venus
- C[C@H](CO)N1C[C@H](C)[C@@H](CN(C)Cc2ccc(Oc3ccccc3)cc2)Oc2ccc(NS(C)(=O)=O)cc2CC1=O
    -30.2	-23.5
- COc1ccc(NC(=O)Nc2ccc3c(c2)C(=O)N([C@@H](C)CO)C[C@H](C)[C@@H](CN(C)Cc2ccc(Cl)c(Cl)c2)OCCCC[C@H](C)O3)cc1
    -32.3	-29.5
- O=C(c1ccccn1)N1C[C@H]2[C@@H](c3ccccc31)[C@@H](CO)N2C(=O)C1CCCCC1
    14.6	7.1
- COc1cccc(-c2ccc3c(c2)O[C@@H](CN(C)Cc2cncnc2)[C@H](C)CN([C@H](C)CO)S3(=O)=O)c1
    -20.3	-14.9
- C[C@@H]1CN([C@H](C)CO)C(=O)c2cc(NC(=O)CCCN(C)C)ccc2O[C@H]1CN(C)Cc1ccc2c(c1)OCO2
    -3.9	-2.7
- CCC(=O)Nc1ccc2c(c1)OC[C@H](C)N(C(=O)c1ccccc1F)C[C@H](C)[C@@H](OC)CN(C)C2=O
    -2.7	-10.8
- CC(C)NC(=O)N(C)C[C@@H]1OCCCC[C@@H](C)Oc2ccc(NC(=O)Cc3ccccc3)cc2C(=O)N([C@H](C)CO)C[C@H]1C
    1.1	-2.2
- O=C(C[C@H]1C=C[C@@H](NC(=O)Cc2cccnc2)[C@@H](CO)O1)Nc1ccccc1
    -1.6	6.3
- CC(=O)N(C)C[C@H]1Oc2cc(C#Cc3ccc(F)cc3)ccc2S(=O)(=O)N([C@@H](C)CO)C[C@@H]1C
    ?	/
- O=C(Cc1ccccc1)N1CC[C@@H]2[C@H]1c1cc(-c3ccccc3F)ccc1N[C@@H]2CO
    -6.1	6.6

Next section
Sequence of screens: Vaccinia inh	Vaccinia inh Venus
- C[C@@H]1CN([C@H](C)CO)C(=O)Cc2cc(NC(=O)Cc3cn(C)c4ccccc34)ccc2O[C@H]1CN(C)C(=O)Nc1ccccc1
    13.2	7.3
- CO[C@@H]1CN(C)C(=O)c2ccc(NC(=O)c3cccc(F)c3)cc2OC[C@H](C)N(CC2CC2)C[C@H]1C
    -4.6	-0.7
- COc1ccc(-c2cnc3c(c2)C(=O)N([C@H](C)CO)C[C@H](C)[C@@H](CN(C)C)O3)cc1
    1.1	9.0
- CO[C@@H](CN(C)C(=O)c1ccc2c(c1)OCO2)[C@@H](C)CN([C@H](C)CO)S(=O)(=O)c1ccccc1
    2.6	1.5
- C[C@@H]1CN([C@H](C)CO)C(=O)c2cc(C#CCN(C)C)cnc2O[C@@H]1CN(C)C(=O)c1ccc2c(c1)OCO2
    3.1	0.4
- Cc1cccc(-c2ccc([C@@H]3[C@@H](CO)N4C(=O)CN(C(=O)c5ccccc5)C[C@H]34)cc2)c1
    -33.5	-23.8
- C[C@@H]1CN([C@H](C)CO)C(=O)c2cc(C#C[C@@H](C)O)cnc2O[C@H]1CN(C)CC1CCCC1
    1.3	3.2
- C[C@@H]1CCCCO[C@H](CN(C)C(=O)Nc2ccccc2)[C@@H](C)CN([C@@H](C)CO)C(=O)c2cc(NC(=O)Cc3ccccc3)ccc2O1
    -20.6	-21.5
- C[C@@H](NC(=O)C[C@@H]1CC[C@@H](NS(=O)(=O)c2cccc(F)c2)[C@@H](CO)O1)c1ccccc1
    11.8	8.2
- O=C(NC1CCC1)[C@H]1[C@H](CO)[C@H]2Cn3c(ccc(C4=CCCCC4)c3=O)[C@H]2N1C(=O)C1CCOCC1
    11.5	7.1

In a second layout: entries from further up
Molecule: CO[C@@H](CN(C)C(=O)c1ccc2c(c1)OCO2)[C@@H](C)CN([C@H](C)CO)S(=O)(=O)c1ccccc1
  Vaccinia inh: 2.6; Vaccinia inh Venus: 1.5
Molecule: C[C@@H]1CN([C@H](C)CO)C(=O)c2cc(C#CCN(C)C)cnc2O[C@@H]1CN(C)C(=O)c1ccc2c(c1)OCO2
  Vaccinia inh: 3.1; Vaccinia inh Venus: 0.4

(continued)
Sequence of screens: Vaccinia inh	Vaccinia inh Venus
- C[C@@H]1CN([C@H](C)CO)C(=O)CCCn2nncc2CO[C@@H]1CN(C)CC1CCCC1
    -5.1	-0.3
- CCC(=O)Nc1ccc2c(c1)C(=O)N(C)[C@H]1CC[C@H](CC(=O)N3CCc4ccccc4C3)O[C@@H]1CO2
    3.9	-1.1
- CC(C)NC(=O)Nc1ccc2c(c1)C(=O)N([C@@H](C)CO)C[C@@H](C)[C@@H](CN(C)C(=O)Nc1ccc(C(F)(F)F)cc1)OCCCC[C@@H](C)O2
    10.1	4.4
- COc1cccc(NC(=O)N[C@@H]2CC[C@H](CC(=O)N3CCOCC3)O[C@@H]2CO)c1
    8.6	6.8
- Cc1noc(C)c1NC(=O)Nc1ccc2c(c1)C(=O)N([C@H](C)CO)C[C@@H](C)[C@@H](CN(C)C(=O)Nc1c(C)noc1C)O2
    28.6	13.8
- COc1cccc(NC(=O)N[C@H]2C=C[C@@H](CC(=O)NCc3ccncn3)O[C@H]2CO)c1
    -11.4	3.0
- C[C@@H]1CN([C@@H](C)CO)C(=O)Cc2cc(N(C)C)ccc2O[C@H]1CN(C)Cc1ccc(Cl)c(Cl)c1
    ?	/
- COc1ccc(CNC(=O)c2cc3c(c(-c4cccc(-c5ccc(C#N)cc5)c4)n2)[C@H](CCO)N([S@@](=O)C(C)(C)C)C3)cc1
    -18.4	12.5
- CC(=O)Nc1ccc2c(c1)C(=O)N(C)[C@@H]1CC[C@H](CC(=O)NCc3ccc(F)cc3)O[C@H]1CO2
    5.8	4.7
- O=C(Nc1cc(F)ccc1F)N1CC(=O)N2[C@H](C1)[C@H](c1ccc(C#CC3CCCCC3)cc1)[C@@H]2CO
    -34.9	-51.3

Next part:
Sequence of screens: Vaccinia inh	Vaccinia inh Venus
- CC(=O)Nc1ccc2c(c1)C(=O)N(C)[C@@H]1CC[C@@H](CC(=O)NCc3ccc(F)cc3)O[C@@H]1CO2
    -2.8	-7.0
- Cc1ccc(S(=O)(=O)NCC[C@@H]2CC[C@@H](NC(=O)Nc3ccccc3F)[C@H](CO)O2)cc1
    0.8	4.0
- O=C(C1CCOCC1)N1C[C@H]2[C@@H](c3ccccc31)[C@@H](CO)N2C(=O)Cc1ccccn1
    13.9	16.0
- CO[C@H]1CC[C@H]2CCN(C)C(=O)[C@H](C)[C@@H](OC)CN(C)C(=O)c3cc(C#N)ccc3OC[C@@H]1O2
    2.3	8.3
- COc1ccc(-c2cnc3c(c2)C(=O)N([C@@H](C)CO)C[C@@H](C)[C@H](CN(C)Cc2ccccc2)O3)cc1
    -21.8	-23.7
- O=C(C[C@@H]1C=C[C@@H](NC(=O)CC2CC2)[C@@H](CO)O1)NCc1ccc(Cl)cc1
    9.8	9.7
- CO[C@@H]1CN(C)C(=O)c2cc(NS(=O)(=O)c3ccccc3)ccc2OC[C@H](C)N(Cc2cccnc2)C[C@@H]1C
    4.1	5.3
- Cc1noc(C)c1NC(=O)Nc1ccc2c(c1)C(=O)N([C@@H](C)CO)C[C@@H](C)[C@H](CN(C)Cc1ccc(C(F)(F)F)cc1)OCCCC[C@H](C)O2
    ?	/
- Cc1ccc(S(=O)(=O)N(C)C[C@H]2OCCCC[C@H](C)Oc3ccc(NC(=O)Nc4ccc5c(c4)OCO5)cc3C(=O)N([C@H](C)CO)C[C@@H]2C)cc1
    -3.8	0.6
- COc1ccc2c3c(n(C)c2c1)[C@@H](CO)N(CC1CC1)CC31CCN(C(=O)CN(C)C)CC1
    -15.1	-9.8

Other records
Sequence of screens: Vaccinia inh	Vaccinia inh Venus
- CN(C)C(=O)C[C@@H]1CC[C@H]2[C@H](COc3ccc(NC(=O)c4ccc(F)c(F)c4)cc3C(=O)N2C)O1
    15.1	10.1
- COc1cccc(S(=O)(=O)N(C)C[C@H]2Oc3cc(C#CCN(C)C)ccc3S(=O)(=O)N([C@@H](C)CO)C[C@@H]2C)c1
    -8.3	-1.6
- O=C(C[C@H]1CC[C@H](NC(=O)C2CCC2)[C@H](CO)O1)NCc1ccccc1Cl
    8.7	5.7
- COc1ccc(S(=O)(=O)N(C)C[C@@H]2Oc3ncc(-c4cccc(C(F)(F)F)c4)cc3C(=O)N([C@H](C)CO)C[C@@H]2C)cc1
    -19.7	-12.6
- O=C(Nc1ccc(-c2ccccc2)cc1)[C@@H]1[C@@H](CO)[C@@H]2Cn3c(cccc3=O)[C@H]1N2Cc1ccccc1
    -12.4	-5.2
- CN1C(=O)c2cc(NC(=O)Cc3cccs3)ccc2OC[C@H]2O[C@@H](CC(=O)NCc3ccc(-c4ccccc4)cc3)CC[C@@H]21
    -10.4	6.3
- C[C@H](CO)N1C[C@H](C)[C@@H](CN(C)C)Oc2c(NS(=O)(=O)c3cccs3)cccc2C1=O
    21.7	10.8
- C[C@@H]1CN([C@H](C)CO)C(=O)c2c(c3ccccc3n2C)-c2ccccc2CO[C@H]1CN(C)C(=O)Nc1ccc2c(c1)OCO2
    ?	/
- COCC#Cc1ccc([C@@H]2[C@@H](CO)N3CCCCN(C(=O)Cc4ccccn4)C[C@@H]23)cc1
    12.6	6.3
- CCN1[C@@H]2c3ccc(-c4cccc(F)c4)c(=O)n3C[C@H]1[C@H](CO)[C@H]2C(=O)N(C)C
    0.8	0.1

Additional structures follow:
Sequence of screens: Vaccinia inh	Vaccinia inh Venus
- O=C(c1ccc(F)cc1)N1CC(=O)N2[C@H](C1)[C@H](c1ccc(-c3cccnc3)cc1)[C@@H]2CO
    8.3	-5.3
- CC(C)NC(=O)Nc1ccc2c(c1)C(=O)N([C@@H](C)CO)C[C@@H](C)[C@H](CN(C)Cc1ccc(Oc3ccccc3)cc1)O2
    -8.4	-8.5
- CNC[C@H]1Oc2cc(Br)ccc2S(=O)(=O)N([C@@H](C)CO)C[C@H]1C
    2.1&-5.5	0.1&3.4
- CC(C)(C)[S@@](=O)N1Cc2cc(C(=O)NC3CCC3)nc(-c3cccc(-c4ccccc4F)c3)c2[C@H]1CCO
    -22.3	-7.2
- O=C(c1ccc(F)cc1)N1CCCCN2[C@H](C1)[C@H](c1ccc(/C=C/c3ccccc3)cc1)[C@@H]2CO
    -7.7	-16.1

This is a subset; rates above refer to the full screens.
